A488 fluor = A488 region autofluorescence. compound autofluorescence, A488 spectral region, dye equivalency; stronger effect = higher value. max dye equivalency, M. 59,000 compounds, 0.1% hits; active = above 10 nM dye equivalent; inconclusive = 1 to 10 nM; inactive = 1 nM or less; about half of its hits are not listed in these tables;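 further: highest value over a series up to 38 µM; compound alone in buffer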
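Readout is A488 dye-equivalent concentration, calibrated by a per-plate six-point Alexa 488 series. Compounds in 100 mM Tris buffer pH 8.0 were incubated 15 min at room temperature. Plates were imaged using 480 nm excitation/540 nm emission filters.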
TSHR ag = TSH receptor (human) agonism; Potency, µM (highest dose often 57.1 µM), for inactives: top-dose activation, usual class: activators; 73,000 compounds, 0.48% hits; HEK293-CNG-TSHR cells (CNG channel as cAMP sensor), membrane potential dye, cAMP; P16473; active = well fitted activation curve of enough size with the parental cells flat; inconclusive = any curve in the parental cells; inactive = parental cells flat and receptor cells flat or falling; further: potency means the concentration at half of the fitted maximal effect; % of control where 0% means no effect; weak receptor curves with flat parental cells got no call and are not listed
Target sequence (P16473 whole entry, looked up): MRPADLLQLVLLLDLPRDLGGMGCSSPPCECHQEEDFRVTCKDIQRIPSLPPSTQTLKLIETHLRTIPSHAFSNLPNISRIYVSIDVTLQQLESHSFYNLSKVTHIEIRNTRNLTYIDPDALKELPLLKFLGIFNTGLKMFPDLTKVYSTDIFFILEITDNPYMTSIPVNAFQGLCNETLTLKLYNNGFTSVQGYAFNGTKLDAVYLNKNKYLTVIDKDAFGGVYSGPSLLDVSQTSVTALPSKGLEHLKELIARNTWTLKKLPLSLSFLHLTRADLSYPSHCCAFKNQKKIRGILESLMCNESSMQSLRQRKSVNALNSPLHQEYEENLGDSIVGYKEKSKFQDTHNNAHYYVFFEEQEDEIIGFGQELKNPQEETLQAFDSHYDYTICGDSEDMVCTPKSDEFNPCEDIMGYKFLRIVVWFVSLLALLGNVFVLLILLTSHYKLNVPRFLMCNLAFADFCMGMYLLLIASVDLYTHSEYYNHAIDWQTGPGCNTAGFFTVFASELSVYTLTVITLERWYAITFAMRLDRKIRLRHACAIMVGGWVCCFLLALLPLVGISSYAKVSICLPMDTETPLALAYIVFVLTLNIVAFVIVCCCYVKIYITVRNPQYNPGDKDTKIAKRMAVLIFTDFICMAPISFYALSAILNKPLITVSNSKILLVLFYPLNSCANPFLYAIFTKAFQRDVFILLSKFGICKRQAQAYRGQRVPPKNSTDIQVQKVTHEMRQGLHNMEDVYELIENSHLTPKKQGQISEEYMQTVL
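HEK 293 cells stably expressing TSHR and a cAMP-gated CNG channel; parental CNG-only cells as counterscreen. Cells preloaded 60 min with membrane potential dye plus 100 uM RO 20-1724, then compound 30 min; fluorescence read at 590 nm.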
A647 autofl = A647 region autofluorescence; Compound fluorescence, A647 channel (570/671 nm), Tris buffer; max dye-equivalent concentration, M; 59,000 tested, under 10 active; AID 592; active means above 1 µM dye equivalent; inconclusive means 0.1 to 1 µM; inactive means 0.1 µM or less;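 further: values scaled relative to a standard on each plate; highest value over a series up to 38 µM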
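Compounds pinned into 100 mM Tris pH 8.0, 15 min at room temperature, then read with 570 nm excitation/671 nm emission filters. Fluorescence normalized to an on-plate six-point Alexa 647 standard curve, giving dye-equivalent concentration per compound concentration.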
AID923 = qHTS Assay for Allosteric/Competitive Inhibitors of Caspase-1: Spectroscopic Profiling in AFC Spectral Region; compound fluorescence, AFC spectral region (405/520 nm); almost no hit is shown here; Potency, µM (doses to about 57.5 µM), for the others: at the highest dose fluorescence increase, hits mostly activators; 75,000 compounds, 1.1% hits; active means well fitted activation curve with a large enough effect; inconclusive means small, poorly fitted or top-dose-only effect;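 further: potency means the concentration at half of the fitted maximal effect; 0% is about no effect; scaled to a free AFC standard on each plate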
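Titrations up to 57 uM read every 20 sec for 3 min (405/520 nm) with 50 nM caspase 1 and 5 uM Ac-WEHD-AFC, pH 7.5 HEPES buffer. Fluorescence-vs-time intercept gave baseline, scaled against on-plate AFC standard.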
Resorufin fluor = compounds fluorescent in resorufin spectral region | max dye-equivalent concentration, M | Compound fluorescence, resorufin region 547/598 nm, buffer; stronger effect = higher value | AID 588 | 59,000 compounds, 0.04% hits; active = above 10 nM dye equivalent; inconclusive = 1 to 10 nM; inactive = 1 nM or less; a few of its hits are not listed in these tables; further: highest value over a series up to 38 µM
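Tris 100 mM pH 8.0; compound added, 15 min RT; CCD imager read, ex 547 nm/em 598 nm; signal normalized to resorufin standard curve (six concentrations per plate) as dye-equivalent concentration.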
Active calls of the source: *; [ ] = another dose, or the depositor's remark.

`CC(=O)Nc1ccc(Nc2nc(C)nc3c2oc2ccccc23)cc1` gave A488 fluor inactive, TSHR ag -3.9%, A647 autofl 1e-09, AID923 2.7% and Resorufin fluor inactive.
Screening COC(=O)c1cc(-c2c(C)nn(-c3ccccc3)c2C)n[nH]1 returned A488 fluor inactive, TSHR ag 3.9%, A647 autofl 7.6e-09, AID923 -0.9% and Resorufin fluor inactive.
For COc1ccc(CN2CC(C(=O)NCCC3=CCCCC3)CC2=O)cc1 (stereo not drawn) the results were A488 fluor inactive, TSHR ag -5.9%, A647 autofl 1.03e-08, AID923 -0.2% and Resorufin fluor inactive.
For Cc1ccc(NC(=O)c2ccco2)c(NC(=O)c2cccs2)c1 the results were A488 fluor inactive, TSHR ag 19.3%, A647 autofl 5.21e-08, AID923 -1.2% and Resorufin fluor inactive.
CS(=O)(=O)N1CCC2(CC1)CN(c1ccccc1)C2 was read as A488 fluor inactive, TSHR ag 25.7%, A647 autofl 1.16e-08, AID923 4.9% and Resorufin fluor inactive.
For Cn1cccc1C(=O)N1CCC2(CCCN(c3cccc(-c4ccccc4)c3)C2)CC1 the results were A488 fluor inactive, TSHR ag 17.8%, A647 autofl 1e-09, AID923 3.3% and Resorufin fluor inactive.
For Cc1csc(SCC(=O)Nc2nc3ccccc3s2)n1 the results were A488 fluor inactive, TSHR ag 21.0%, A647 autofl 1e-09, AID923 0.9% and Resorufin fluor inactive.
Screening CCOC(=O)c1csc(NC(=O)c2ccc(S(=O)(=O)N(C)C)cc2)n1 returned A488 fluor inactive, TSHR ag 9.8%, A647 autofl 1e-09, AID923 1.8% and Resorufin fluor inactive.
CCOc1cccc(-c2nn3c(-c4ccco4)nnc3s2)c1 was read as A488 fluor inactive, A647 autofl 1e-09 and Resorufin fluor inactive.
`CCCSc1nc2c(c(=O)[nH]c(=O)n2C)n1Cc1ccc(C)cc1` gave A488 fluor inactive, A647 autofl 1.41e-08, AID923 1.8% and Resorufin fluor inactive.
`O=C1CC(N2CCN(Cc3ccc4c(c3)OCO4)CC2)C(=O)N1c1ccccc1` (stereo not drawn) gave A488 fluor inactive, TSHR ag -10.9%, A647 autofl 3.4e-09, AID923 -0.3% and Resorufin fluor inactive.
`COc1ccc(CCc2nc(-c3ccc(-n4cccc4)cc3)no2)cc1` gave TSHR ag 16.6% and AID923 0.5%.
CC(C)NC(=O)CSc1nc2ccccc2c(=O)n1CCCOC(C)C was read as A488 fluor inactive, TSHR ag -53.2%[inhibitor], A647 autofl 1e-09, AID923 3.6% and Resorufin fluor inactive.
`C=CCc1cccc2cc(C(=O)NC(C)(C)C)c(=O)oc12` gave A488 fluor inactive, TSHR ag -8.4%, A647 autofl 1e-09, AID923 1.2% and Resorufin fluor inactive.
`CCCCS(=O)(=O)NC1=NCN(CCOC(=O)c2ccccc2)CN1` gave TSHR ag -3.1% and AID923 1.2%.
Screening CCOc1ccc(C2N(c3ccc(Cl)cc3)C(=O)C3CCCN32)cc1OC (stereo not drawn) returned TSHR ag 4.8% and AID923 3.0%.
Cc1ccc(C(=O)CC2(O)C(=O)N(CN3CCOCC3)c3ccccc32)cc1 (stereo not drawn) was read as A488 fluor inactive, TSHR ag inconclusive, A647 autofl 2.64e-08, AID923 -0.9% and Resorufin fluor inactive.
`COc1ccc(CCNC(=O)CSc2nnc(CNC(=O)c3ccccc3F)o2)cc1OC` gave A488 fluor inactive, TSHR ag -2.6%[11.4 µM], A647 autofl 1e-08, AID923 -0.5% and Resorufin fluor inactive.
`CCCn1c(N2CCN(CC(=O)c3c[nH]c4ccccc34)CC2)nc2c1c(=O)[nH]c(=O)n2C` gave A488 fluor inactive, TSHR ag 3.2%, A647 autofl 1.62e-08, AID923 4.0% and Resorufin fluor inactive.
Screening CC(C)N(Cc1cc2ccccc2[nH]c1=O)C(=O)C(C)(C)C returned A488 fluor inactive, TSHR ag inconclusive, A647 autofl 1e-09, AID923 1.3% and Resorufin fluor inactive.
For C/C(=C\C(=O)c1ccc(Br)cc1)N1CCCCC1 the results were TSHR ag 6.3% and AID923 -2.9%.
For Clc1ccc(C=Nc2ccc3c(c2)Cc2ccccc2-3)c(Cl)c1 the results were A488 fluor inactive, TSHR ag 1.8%[11.4 µM], A647 autofl 3.2e-09, AID923 -1.1%[11.5 µM] and Resorufin fluor inactive.
CCOc1ccc2[nH]c(=O)c(CN(CC3COCCO3)C(=O)c3ccco3)cc2c1 (stereo not drawn) was read as A488 fluor inactive, TSHR ag 0.6%, A647 autofl 1.42e-08, AID923 -3.3% and Resorufin fluor inactive.
`O=C(NC1CCCCC1)N1CCC(n2cnc3ccccc32)CC1` gave A488 fluor inactive, TSHR ag -3.6%, A647 autofl 2.6e-09, AID923 -1.1% and Resorufin fluor inactive.
Screening CN(C)C(=O)c1nc(C#N)c(N(C)C)o1 returned A488 fluor inactive, TSHR ag -20.0%, A647 autofl 1e-09, AID923 0.9% and Resorufin fluor inactive.
`CS(=O)(=O)N(CC(=O)N1CCOCC1)Cc1ccccc1` gave A488 fluor inactive, TSHR ag 4.8%, A647 autofl 1e-09, AID923 0.7% and Resorufin fluor inactive.
COc1ccccc1N1CCN(c2cc(=O)n(-c3ccc(Br)cc3)c(=O)[nH]2)CC1 was read as A488 fluor inactive, TSHR ag -6.2%, A647 autofl 3.7e-09, AID923 -1.5% and Resorufin fluor inactive.
Screening O=C1c2ccccc2S(=O)(=O)N1Cc1nnc(-c2ccccc2Br)o1 returned A488 fluor inactive, TSHR ag inconclusive, A647 autofl 2.4e-09, AID923 0.1% and Resorufin fluor inactive.
For Cc1nc(N2CCOCC2)c2nc(-c3ccccc3)n(CC(C)(C)CN(C)C)c2n1 the results were TSHR ag 5.3% and AID923 -0.1%.
COc1ccc(C(=O)NCCSCc2ccco2)cc1OC was read as TSHR ag -7.3%[11.4 µM] and AID923 -0.1%.

The last 6 entries of the part above come first, to join the parts.
Screening CN(C)C(=O)c1nc(C#N)c(N(C)C)o1 returned A488 fluor inactive, TSHR ag -20.0%, A647 autofl 1e-09, AID923 0.9% and Resorufin fluor inactive.
`CS(=O)(=O)N(CC(=O)N1CCOCC1)Cc1ccccc1` gave A488 fluor inactive, TSHR ag 4.8%, A647 autofl 1e-09, AID923 0.7% and Resorufin fluor inactive.
COc1ccccc1N1CCN(c2cc(=O)n(-c3ccc(Br)cc3)c(=O)[nH]2)CC1 was read as A488 fluor inactive, TSHR ag -6.2%, A647 autofl 3.7e-09, AID923 -1.5% and Resorufin fluor inactive.
Screening O=C1c2ccccc2S(=O)(=O)N1Cc1nnc(-c2ccccc2Br)o1 returned A488 fluor inactive, TSHR ag inconclusive, A647 autofl 2.4e-09, AID923 0.1% and Resorufin fluor inactive.
For Cc1nc(N2CCOCC2)c2nc(-c3ccccc3)n(CC(C)(C)CN(C)C)c2n1 the results were TSHR ag 5.3% and AID923 -0.1%.
COc1ccc(C(=O)NCCSCc2ccco2)cc1OC was read as TSHR ag -7.3%[11.4 µM] and AID923 -0.1%.
For COCCNC(=O)c1c(N)n(CCC2=CCCCC2)c2nc3ccccc3nc12 the results were A488 fluor inactive, A647 autofl 1e-09 and Resorufin fluor inactive.
For CC(=O)c1ccc(OCCCC(=O)N2CCN(S(=O)(=O)c3cccs3)CC2)cc1 the results were A488 fluor inactive, TSHR ag 18.8%, A647 autofl 1e-09, AID923 0.1% and Resorufin fluor inactive.
O=C1CC(C(=O)N2CCN(c3ccc(F)cc3)CC2)CN1CCc1ccccc1 (stereo not drawn) was read as TSHR ag 0.5% and AID923 2.9%.
COc1ccc(N2CC(O)=C(c3nc4ccccc4s3)C2=N)cc1 was read as A488 fluor inactive, TSHR ag -1.0%, A647 autofl 3.5e-09, AID923 -1.8% and Resorufin fluor inactive.
O=C(NCCC1=CCCCC1)C1CCN(S(=O)(=O)c2cnc[nH]2)CC1 was read as A488 fluor inactive, TSHR ag 1.8%, A647 autofl 1.37e-08, AID923 0.9% and Resorufin fluor inactive.
CCc1nnc(NC(=O)C2CCN(c3nc(C)cc(C)n3)CC2)s1 was read as A488 fluor inactive, TSHR ag -10.7%, A647 autofl 2.22e-08, AID923 0.3% and Resorufin fluor inactive.
O=C(NC1CC1)c1c[nH]c2ccc(S(=O)(=O)Nc3cccc(C(F)(F)F)c3)cc2c1=O was read as A488 fluor inactive, TSHR ag -1.1%, A647 autofl 2.41e-08, AID923 -0.8% and Resorufin fluor inactive.
`Cc1cc(C)c(C)c(OCC(=O)NCc2nc(-c3ccccc3)no2)c1` gave A488 fluor inactive, TSHR ag inconclusive, A647 autofl 7.6e-09, AID923 1.1% and Resorufin fluor inactive.
Screening O=C(CCSCCC(=O)NCc1ccco1)NCc1ccco1 returned TSHR ag -2.0% and AID923 2.9%.
For Cc1c(N)c(=O)n(-c2ccccc2)n1C the results were A488 fluor inactive, TSHR ag -4.1%[25.6 µM], A647 autofl 6.7e-09, AID923 0.0% and Resorufin fluor inactive.
For COc1ccccc1NC(=O)N1CCN(c2ccccc2F)CC1 the results were A488 fluor inactive, TSHR ag 10.9%, A647 autofl 1.2e-09, AID923 -2.5% and Resorufin fluor inactive.
`CN(C)CCOC(=O)Cc1ccc(Cl)cc1` gave A488 fluor inactive, A647 autofl 1.51e-08 and Resorufin fluor inactive.
Screening Nc1nnc(SCc2cc3c(cc2Cl)OCO3)s1 returned A488 fluor inactive, TSHR ag 12.7%, A647 autofl 1e-09, AID923 -0.6% and Resorufin fluor inactive.
Cc1ccc2[nH]c(=O)c(CN(CC3CCCO3)C(=O)c3ccco3)cc2c1 (stereo not drawn) was read as A488 fluor inactive, TSHR ag 4.5%, A647 autofl 5.7e-09, AID923 -1.7% and Resorufin fluor inactive.
Cn1cnnc1SCC(=O)NC(=O)NC1CCCC1 was read as A488 fluor inactive, TSHR ag 3.0%, A647 autofl 2.7e-09, AID923 -0.7% and Resorufin fluor inactive.
For O=C(NCCCN1CCCC1=O)c1ccc2c(c1)ncn2C1CCCCC1 the results were TSHR ag inconclusive and AID923 -1.2%.
For Cc1cccc(N2C(N)=C(C#N)C(C#N)(C#N)C2c2ccccc2)c1 (stereo not drawn) the results were A488 fluor inactive, A647 autofl 3.26e-08, AID923 0.0% and Resorufin fluor inactive.

Source: PubChem

Not all compounds are listed (hit frequency here may not be typical).
